RN4220 kill – kills Staphylococcus aureus RN4220 | S. aureus RN4220 growth, OD600, 16 h | AID 1259311 | 0.33% of 330,000 active | inhibition, % (concentration not given with the values);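 active = z-score of -3 or lower and OD600 up to 0.18 on both plates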;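 also: plate controls were untreated cells for no effect and reference antibiotic for full effect; stock transfer was 100 nL into about 80 µL; one replicate is shown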
BJeLR lethal – BJeLR cell viability loss | BJeLR (HRASV12) viability, CellTiter-Glo ATP luminescence, 48 h; reference of the scale not given here | 0.17% of 300,000 active | AID 1554 | inhibition, % (no concentration beside the values);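 active = replicate mean above 50%; inconclusive = above 50% but judged a plate artefact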;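 also: 50 nL library stock added to about 25 µL; numbers are from one replicate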
Sa ugtP lethal – kills S. aureus RN4220 lacking UgtP | S. aureus RN4220 ugtP deletion, OD600 growth, 16 h; some inactives read as strong as hits | growth inhibition, % (concentration not given with the values) | 0.54% of 330,000 active;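 active = z-score under -3 and OD600 up to 0.15 on both plates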;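 also: plate controls were untreated wells for no effect and antibiotic for full effect; wells of about 80 µL received 100 nL stock; the first replicate is given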
PrP UTR inh – inhibition of PrP 5' UTR reporter expression; cell-based PrP 5' UTR mRNA reporter, plate reader; inhibition, % (test concentration not listed); 0.35% of 340,000 active;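 active = every replicate at 50% or more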;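 also: 0 = median of the neutral control wells; tested in H4 reporter cells; numbers are from one replicate; inactives centre near -14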
Mtb hypoxia rep – reduces hypoxia-regulated biosensor signal in M. tuberculosis. M. tuberculosis hypoxia-regulated fluorescent reporter, fluorescence. fluorescence inhibition, % (no concentration beside the values). 0.1% of 300,000 active;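 active = 35 to 45% if threefold the growth effect, above 45% if 1.5-fold the growth effect; inactive = the rest, general growth blockers included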;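 also: wells of about 50 µL received 100 nL stock; 0% = vehicle wells and 100% = reference inhibitor wells; whole bacteria with a GFP reporter of the hypoxia response; strong numbers were not always called active; many hits fall short of the cut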
Bead autofluor – counter-screen for toxin protease inhibitors: compound fluorescence; 3.1% of 360,000 active; fluorescence intensity (no concentration beside the values); compound autofluorescence counterscreen, microsphere flow cytometry; hits give high values;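 active = at least 3 SD above the mean of all compounds, about 16000 in these data; inconclusive = too few beads counted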;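 also: 100 nL of 1 mM stock went into each well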
Mtb hypoxia rep growth – further read-out of Mtb hypoxia rep, marked with its call; growth inhibition, %; measured here: M. tuberculosis growth (absorbance);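 0% = vehicle and 100% = reference antibiotic; read after six days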
The depositor's hits bear a star; u = inconclusive; x = no result given.

SMILES | RN4220 kill | BJeLR lethal | Sa ugtP lethal | PrP UTR inh | Mtb hypoxia rep | Mtb hypoxia rep growth | Bead autofluor
CCOC(=O)Nc1oc2ccccc2c(=O)c1C | 0.3 | 4 | 5 | -2 | 6 | 6 | 9292
Cc1ccc(S(=O)(=O)N2CCCC(C(=O)NCc3ccc4c(c3)OCO4)C2)cc1 (stereo not drawn) | -6.1 | -9 | 9 | -23 | 9 | 4 | 3682
COc1cc(C2Sc3ccccc3NC3=C2C(=O)OC3)cc(OC)c1OC (stereo not drawn) | 3.6 | -9 | 9 | -31 | 8 | 11 | 4348
CC1CCN(c2nc3ccccc3nc2N2CCC(C)CC2)CC1 | -0.5 | -3 | 4 | x | x | x | x
COc1cc(/C=N/n2cnnc2)ccc1OC(=O)c1ccncc1 | x | 11 | x | -14 | x | x | 6600
CC(=O)Nc1cccc(NC(=O)CSc2ncc(-c3ccccc3)[nH]2)c1 | 6.8 | -4 | -3 | -43 | 9 | 6 | 4280
O=C(Nc1cccnc1)c1cccs1 | -2.0 | -6 | -4 | x | -1 | 12 | 13028
S=c1[nH]nc(COc2ccccc2)n1/N=C/c1c(Cl)cccc1Cl | x | -11 | x | -24 | x | x | 3444
Cc1ccc(CNC(=O)CCCC(=O)O)cc1 | 2.5 | -13 | 6 | -28 | 0 | 3 | 11061
O=C(NNC(=O)c1cccc2ccccc12)c1ccc(-c2ccccc2)cc1 | -3.4 | -1 | 10 | -25 | 9 | -1 | 2178
CC(=O)NS(=O)(=O)c1ccc(NC(=O)c2cccc(S(=O)(=O)N3CCc4ccccc43)c2)cc1 | 1.1 | -10 | 2 | -21 | 0 | 20 | 3938
CCn1cc(S(=O)(=O)N2CCc3ccccc3C2)cn1 | 3.8 | 10 | 1 | 2 | 3 | 0 | 4189
COC(=O)c1c(NC(=O)CN2CCN(c3ccccc3)CC2)c2c(C)cccc2n1C | 0.0 | 7 | -8 | -8 | x | x | 4312
CNc1nnc(Sc2ncccc2[N+](=O)[O-])s1 | 0.4 | -1 | 8 | -15 | 4 | 5 | x
Cc1ccc2c(c1)S/C(=C\c1cccc[n+]1C)N2CCO | 0.6 | 4 | 0 | -3 | 10 | 1 | 4048
Cc1ccc(OCC(=O)Nc2ccc3oc(=O)ccc3c2)cc1 | 1.6 | -8 | 2 | -7 | 1 | -7 | 3569
O=C(Nc1ccccc1)c1cc(S(=O)(=O)N2CCSCC2)ccc1Cl | -0.5 | 4 | 1 | -20 | -3 | -2 | 11076
COc1ccc(C(=O)C2CCN(C(=O)Nc3ccccc3C)CC2)cc1 | 0.0 | -1 | 2 | -11 | 9 | -2 | 3987
C#CCOCCOCCOCCNc1nc(N2CCOCC2)nc(N2CCN(C(=O)CCCCCCCCCCNC(=O)Cn3cc(CCCCCN)nn3)CC2)n1 | 6.6 | x | -8 | -11 | 2 | 12 | 2843
N#C/C(=C/c1ccc(N2CCCCC2)o1)C(=O)Nc1ccc2ccccc2c1 | x | 16 | x | -50 | x | x | 60126*
CC1(C)CC(=O)c2sc(NC(=O)CN3C(=O)CCC3=O)nc2C1 | 1.1 | 3 | 5 | -7 | 7 | 7 | 5138
CC1=C(C(=O)Nc2ccccc2)SCCO1 | 9.1 | 5 | -4 | -11 | -1 | 1 | 4235
O=C1/C(=C/c2ccco2)N=C(N2CCCCC2)N1c1ccccc1 | x | -1 | x | -12 | x | x | 2588
C=CCn1c(C)cc(C2=NNC(=NC(C)(C)C)SC2)c1C | x | 7 | x | 65* | x | x | 1979
O=C(COC(=O)c1cc(Br)c(Br)s1)NCCC1=CCCCC1 | -1.0 | -6 | -8 | -25 | -3 | 0 | 10924
O=S(=O)(NCc1ccccc1)c1ccc2ccccc2c1 | 6.5 | -7 | 0 | -28 | 5 | 1 | 3590
O=C(CC1C(=O)NCCN1Cc1ccccc1C(F)(F)F)NCCN1CCCCC1=O (stereo not drawn) | 3.9 | 1 | -3 | -12 | 8 | 0 | 5505
N#CCCN(C(=O)COC(=O)c1cc(=O)[nH]c2ccccc12)c1ccccc1 | -0.2 | x | 0 | -5 | 0 | 7 | 3865
CCOC(=O)Cc1csc(NC(=O)CSc2nc(=O)[nH]c3c2CCC3)n1 | 0.0 | -3 | 4 | -17 | 2 | 8 | u
COc1cccc(N2CCN(S(=O)(=O)c3ccc(-c4cnc(C5CC5)o4)cc3)CC2)c1 | 1.3 | 0 | 5 | -29 | -1 | -2 | 5897
Cc1ccc(S(=O)(=O)N2C[C@@H]3[C@H]4CC[C@H](C4)[C@@H]3[C@@H](C)[C@H]2C#N)cc1 | 10 | x | -3 | 17 | 7 | 9 | 3367
CCCn1c2ccccc2c2nnc(SCC(=O)Nc3cc(C)on3)nc21 | 3.5 | 0 | -4 | -16 | x | x | 2246
CC(OC(=O)c1cc2sccc2n1C)C(=O)NCc1ccc2c(c1)OCO2 (stereo not drawn) | 4.7 | 4 | -3 | -21 | 0 | 1 | 9407
CN1CC[C@@]23CCCC[C@@H]2[C@@H]1Cc1ccc(O)cc13 | x | 1 | x | -3 | x | x | 4456
O=C(CN1CCCC1c1cccs1)Nc1cc(S(=O)(=O)N2CCCC2)ccc1Cl (stereo not drawn) | 1.8 | x | 3 | -29 | 2 | -1 | 4255
CC(=O)c1c(C)[nH]c(C(=O)NNC(=O)COc2cc(C)cc(C)c2)c1C | -0.6 | x | 0 | -8 | 8 | 16 | 6341
Cc1ccc(-c2nnc(SCC(=O)NN=Cc3c(C)nn(-c4ccccc4)c3C)n2-c2ccccc2)cc1 | 4.3 | x | 1 | x | 10 | 7 | x
CN(CC(=O)Nc1ccc(N2CCOCC2)cc1)C(=O)c1ccc(CS(C)(=O)=O)cc1 | 0.4 | x | -5 | -10 | -7 | 7 | 2791
CN(C)c1oc(-c2ccco2)nc1S(=O)(=O)c1ccc(Br)cc1 | -2.0 | x | -4 | -21 | 5 | 6 | 4231
CC1(C)Cc2c(C#N)c(N3CCN(C(=O)c4ccco4)CC3)nc(Cc3ccccc3)c2CO1 | -6.9 | 1 | 3 | -3 | 1 | 17 | 4194
CCCn1c(SCC(=O)N2CCCCC2)nnc1-c1ccccn1 | 7.4 | -3 | -2 | x | 11 | 9 | x
Clc1ccc(N2CCN(/N=C/c3cccnc3)CC2)cc1 | x | -1 | x | -7 | x | x | 3261
Cc1sc2ncn(CC(=O)N3CCN(c4ccccn4)CC3)c(=O)c2c1S(=O)(=O)N1CCCCC1 | 2.6 | -14 | 8 | -24 | -6 | -3 | 6539
COc1ccc(N(C(C)C(=O)NN=Cc2cccnc2)S(C)(=O)=O)cc1 (stereo not drawn) | 2.2 | x | 1 | x | 10 | 5 | x
COc1ccccc1N(Cc1ccccc1)S(=O)(=O)c1cccc(C(=O)NCC2CCCO2)c1 (stereo not drawn) | 8.4 | x | 0 | -6 | -3 | 3 | 5320
COCCCNC(=O)c1cc(S(=O)(=O)N2CCOCC2)ccc1SCc1cccc(OC)c1OC | 4.8 | 4 | 19 | -41 | 7 | 4 | 4163
O=C(NC1CCCCCC1)c1nnc(Cc2ccc(Cl)cc2)o1 | -3.5 | 9 | 13 | -25 | 5 | -5 | 6109
CCc1c(C)nc(SCCOc2ccc(OC(C)C)cc2)[nH]c1=O | -4.7 | -5 | -8 | -33 | 1 | 3 | 3975
COc1ccc(CCN(C)Cc2ccc(C(=O)Nc3ccccc3)cc2)cc1OC | 3.2 | 3 | 11 | -1 | 10 | 7 | 4381
Cc1ccc(NC(=O)c2ccc(Cl)nc2)cc1S(=O)(=O)N1CCOCC1 | 7.9 | x | 0 | -22 | 10 | 16 | 3401
CCNCCNc1ccc(Cl)cc1[N+](=O)[O-] | 1.8 | -10 | 2 | -14 | 8 | 10 | 3715
NCC(=NO)c1ccc(Cl)cc1Cl | 1.1 | x | 2 | x | -2 | 2 | x
COc1ccc(C(c2nnnn2C(C)(C)C)N2CCN(C)CC2)cc1OC (stereo not drawn) | -2.0 | 9 | 3 | -28 | x | x | 2760
Cc1ccccc1C(=O)NNC(=O)c1cccn1C | 1.8 | 3 | 0 | -42 | 8 | 5 | 4653
O=C(ON=Cc1ccc(N2CCCCC2)c([N+](=O)[O-])c1)c1ccc(Cl)cc1Cl | -15 | x | -17 | x | 9 | 13 | x
Cc1ccccc1OCC(=O)OC(C(=O)c1ccccc1)c1ccccc1 (stereo not drawn) | 0.4 | -13 | 7 | -23 | 1 | 10 | 2505
O=C(O)CC(c1ccc(Br)cc1)N1Cc2ccccc2C1=O (stereo not drawn) | 5.3 | 0 | 4 | -28 | 5 | -4 | 2984
CN(C)c1ccc(NC(=O)CSc2nc(N)c(C(=O)Nc3ccc(N(C)C)cc3)s2)cc1 | x | 9 | x | -68 | x | x | 4410
Cc1ccc(-c2nnn(CC(=O)N(CCN3CCOCC3)C(C(=O)NC(C)(C)C)c3ccco3)n2)cc1 (stereo not drawn) | 3.8 | 2 | 3 | -21 | -1 | 10 | 4789
CCCCSc1nnc2c(n1)OC=Nc1ccccc1-2 | 6.3 | 0 | 6 | -26 | 4 | 9 | 5232

(listing goes on)
SMILES | RN4220 kill | BJeLR lethal | Sa ugtP lethal | PrP UTR inh | Mtb hypoxia rep | Mtb hypoxia rep growth | Bead autofluor
O=C(O)CCCN1C(=O)C2C3C=CC(C2C1=O)C1C(=O)N(CCCC(=O)O)C(=O)C31 (stereo not drawn) | 4.4 | 1 | 9 | -20 | 1 | -3 | 3273
CC(=NNC(=O)c1ccco1)c1ccc(Br)s1 | 1.8 | x | -2 | x | 26 | 19 | x
O=C(COC(=O)c1ncc(Cl)c(Cl)c1Cl)NC1CCCCCC1 | -1.1 | 4 | 6 | -14 | 6 | 2 | 5495
Cc1ccc2c(c1)C1CC(C)(O2)N(c2cccc(C(=O)NC3CCN(Cc4ccccc4)CC3)c2)C(=O)N1 (stereo not drawn) | -0.1 | -3 | 3 | -15 | 4 | 4 | 5338
Cc1ccc(NS(=O)(=O)c2cccc(C(=O)NC3CCN(Cc4ccccc4)CC3)c2)c(C)c1 | 0.0 | x | -7 | -6 | -6 | 13 | 4465
O=C(Cc1cccc2ccccc12)Nc1ccc(O)cc1C(=O)O | 5.2 | 20 | 11 | -17 | 9 | 6 | 3847
CCC1CCCCN1CCCNC(=O)c1nn(C)c2c1CS(=O)(=O)c1ccccc1-2 (stereo not drawn) | 4.2 | -3 | 4 | -8 | -4 | 3 | 6119
O=C(Cn1cccc1C(=O)c1ccccc1)NCc1ccc(F)cc1 | 0.1 | -4 | 3 | -7 | 6 | 9 | 5490
O=C(Nc1ccc(S(=O)(=O)N2CCOCC2)cc1)c1ccc([N+](=O)[O-])s1 | 6.0 | -7 | -2 | -29 | 38* | 17* | 5747
CC(=O)Nc1cc2c(cc1NC(=O)Cn1nnc(-c3ccc(C)o3)n1)OCCO2 | 2.2 | 3 | 0 | -27 | 11 | -5 | 4804
CO/N=C(\C(=O)N[C@@H]1C(=O)N2C(C(=O)O)=C(COC(N)=O)CS[C@H]12)c1ccco1 | x | 4 | x | -2 | x | x | 4272
CCCn1nnnc1NCc1ccc(F)cc1 | -3.3 | 5 | -10 | -29 | 6 | 5 | 3046
CC(=O)N1c2ccc(S(=O)(=O)N3CCC(C(=O)Nc4ccc(C)cn4)CC3)cc2CC1C (stereo not drawn) | 4.3 | -4 | 2 | -9 | 8 | 4 | 5016
O=C1C=C(c2ccccc2)C(O)(c2ccccc2)C1 (stereo not drawn) | 7.6 | -6 | 6 | -9 | 20 | 11 | 7825
C#Cc1ccc([C@H]2C=C(C(=O)Nc3ccccc3)O[C@@H](OCc3ccc(CO)cc3)C2)cc1 | x | -1 | x | -5 | x | x | 4107
